Mtb growth: Confirmatory growth inhibition assay against Mycobacterium tuberculosis H37Rv, potency (AID 1949); most inactive calls were filed without a number and no value below 0 was filed; inhibition, % at 10 µg/mL; hits with a dose series show IC50 in µg/mL; hit rate 1.6% among 100,000;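 active = confirmed in a dose series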;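 note: bacteria grown 7 days with compound before Alamar blue readout; 0% = untreated bacteria and 100% = reference antibiotic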
* hit, by the source's call; i = inactive. Not all compounds are listed. The share of hits here may be higher or lower than overall.

The first 2 entries (preview)
SMILES	Mtb growth
CC(=O)C(C)Oc1ccc2c(C(F)(F)F)cc(=O)oc2c1 (centres undefined)	i
Cc1ccc2c(c1)c1nnc(SCCN3CCCCC3)nc1n2C	i

The list itself, from the start:
SMILES	Mtb growth
CC(=O)C(C)Oc1ccc2c(C(F)(F)F)cc(=O)oc2c1 (centres undefined)	i
Cc1ccc2c(c1)c1nnc(SCCN3CCCCC3)nc1n2C	i
CCOC(=O)c1ccccc1NC(=O)CN(c1cc(Cl)ccc1Cl)S(C)(=O)=O	7.3%
Cc1cc(OCC(=O)Nc2nc3ccccc3s2)cc(C)c1Br	i
COc1ccc(-c2nc(S(=O)(=O)c3ccccc3)c(NCc3ccccc3)o2)cc1OC	i
CCOc1ccc(C(=O)Nc2ccc(NC(=O)C(C)C)cc2)cc1[N+](=O)[O-]	i
COc1ccccc1OCC(=O)Nc1cc(C(=O)Nc2ccccc2C(=O)O)ccc1C	i
COC(=O)COc1c(Cl)cc(C#N)cc1Cl	i
Clc1ccc(OCCCCN2CCCCC2)c(Br)c1	i
CC(=O)N/C(=C/c1ccccc1)C(=O)N1CCN(C(=O)/C(=C\c2ccccc2)NC(C)=O)CC1	2.1%
Cc1c(C)c2ccc(OS(C)(=O)=O)cc2oc1=O	i
N#Cc1cc2c(nc1SCC(=O)Nc1cccc(F)c1)CCCC2	i
Cc1cc(C(=O)Oc2ccc(C(=O)Nc3ccc(Cl)cc3)cc2)ccc1[N+](=O)[O-]	i
C=C1c2ccccc2NC(=O)N1c1ccc(OC)cc1	i
O=C(NCc1ccc(F)cc1)NC12CC3CC(CC(C3)C1)C2	i
Cc1ccc(S(=O)(=O)N(C)c2c(C)ccc(S(=O)(=O)NC3CCCCC3)c2C)cc1	1.2%
Cc1ccc(-c2nc3cc(NC(=O)c4cc5ccccc5o4)ccc3o2)c(C)c1	i
O=C(Cn1cnc2ccccc2c1=O)Nc1ccc(OC(=O)c2ccc(Cl)cc2Cl)cc1	i
C=CCn1c(SCC(=O)c2ccccc2)nnc1-c1ccc([N+](=O)[O-])cc1	i
O=C(CSc1nnc(-c2ccc(Br)cc2)o1)Nc1nc(-c2ccccc2)cs1	i

Six entries picked at random from those above, as already listed:
SMILES	Mtb growth
Clc1ccc(OCCCCN2CCCCC2)c(Br)c1	i
Cc1cc(OCC(=O)Nc2nc3ccccc3s2)cc(C)c1Br	i
Cc1ccc(-c2nc3cc(NC(=O)c4cc5ccccc5o4)ccc3o2)c(C)c1	i
CCOC(=O)c1ccccc1NC(=O)CN(c1cc(Cl)ccc1Cl)S(C)(=O)=O	7.3%
O=C(Cn1cnc2ccccc2c1=O)Nc1ccc(OC(=O)c2ccc(Cl)cc2Cl)cc1	i
CCOc1ccc(C(=O)Nc2ccc(NC(=O)C(C)C)cc2)cc1[N+](=O)[O-]	i

The listing continues:
SMILES	Mtb growth
N/C(=N\OC(=O)CCCc1ccccc1)c1ccccc1Cl	6.2%
C=CCSc1n[nH]c(-c2ccc(OC)cc2)n1	i
COC(=O)c1c(NC(=S)Nc2cc(OC)c(Cl)cc2OC)sc(C(=O)N(C)C)c1C	i
COc1ccc(OC(=O)Cc2cccc3ccccc23)cc1	15.4%
COc1ccc(-c2cn3ccc4ccccc4c3n2)cc1	17.4%
Fc1ccccc1Cn1cc(C(=S)N2CCOCC2)c2cc(Br)ccc21	i
CCCCOc1ccc(Br)cc1C(=O)O	i
S=c1[nH]nc(-c2ccc3ccccc3n2)o1	i
CC(C)n1c(Nn2cnnc2)nc2ccccc21	i
COC(=O)c1cccc(NC(=S)N2CCOCC2)c1	i
CCOC(=O)c1ccc(N2C(=O)CC(N3CCN(c4ccc(O)cc4)CC3)C2=O)cc1 (centres undefined)	i
Cc1ccccc1OCC(=O)N1CCCC1	i
CCc1c(C)c2ccc(OCC(=O)Nc3ccccc3Br)cc2oc1=O	i
COc1cc(NC(=O)c2cc(-n3cnnc3)ccc2Cl)cc(OC)c1	i
COC(=O)C1=C(C)NC(=S)NC1c1ccc(O)c(OC)c1 (centres undefined)	0.1%
CCCOc1ccc(C2C(C(=O)OC)=CN(CCOC)C=C2C(=O)OC)cc1	i
O=S(=O)(NC1c2cccc3cccc(c23)C1Sc1ncn[nH]1)c1ccccc1 (centres undefined)	i
O=C(Nc1ccc(Cl)cc1C(=O)NCCN1CCOCC1)c1ccc(Cl)cc1Cl	2.2%
Cc1cc(Br)cc(C)c1OCC(=O)Nc1ccccc1C#N	i
O=C(Nc1ccc(Oc2cccnc2)cc1)c1cccc([N+](=O)[O-])c1	i
CSC1=NC(c2ccc(Cl)cc2)C(C(=O)Nc2ccccc2)=C(C)N1 (centres undefined)	i
CCOC(=O)CSc1nc2sc3c(c2c(=O)n1CCc1ccccc1)CC(C(C)C)OC3 (centres undefined)	i
CSC1=C(C#N)C(c2ccccc2Cl)C(C(C)=O)=C(C)N1 (centres undefined)	i
COc1ccc(C2C3=C(CCCC3=O)Nc3ccccc3N2C(=O)c2ccccc2)cc1OC (centres undefined)	i
COC(=O)c1ccc(OC(=O)C2CC(=O)N(c3cccc(C)c3)C2)cc1 (centres undefined)	i
CCCCc1ccc(S(=O)(=O)NNC(=S)NCc2ccco2)cc1	i
CN(Cc1ccccc1)C1CCN(Cc2ccncc2)CC1	i
CC(C)CC(=O)Nc1nc(-c2ccc(Br)cc2)cs1	i
COC(=O)c1c(NC(=O)C(Cl)(Cl)Cl)sc(C(=O)N(C)C)c1C	i
Cc1cc(C)cc(N2CC(C(=O)O)CC2=O)c1 (centres undefined)	i
O=C(Nc1ccccc1Cl)C(Cc1ccccc1)N1C(=O)C2C3CCC(C3)C2C1=O (centres undefined)	i
Cc1ccc(C)c(Cn2c(CO)nc3ccccc32)c1	i
Cc1ccc(Cl)cc1NC(=O)COc1c(C)cccc1C	2.5%
COC(=O)c1ccccc1NC(=O)N1CCC(Cc2ccccc2)CC1	2.1%
O=C1NC2=C(C(=O)CCC2)C(c2ccccc2Cl)N1 (centres undefined)	5.1%
CCOc1ccc(C(=O)Nc2ccc(N3CCN(C(=O)c4ccccc4C)CC3)cc2)cc1Br	23.0%
CCOc1ccc(C(=O)NC(=S)Nc2cc(Cl)c(O)c(Cl)c2)cc1[N+](=O)[O-]	i
Nc1nnc(SCc2cc3c(cc2Cl)OCO3)s1	i
CS(=O)(=O)N1CCn2c1nc1ccccc12	i
COc1ccc(S(=O)(=O)N(C)CC(=O)N2CCCCC2)cc1	0.3%

The last four entries of the section before come first, to join the parts:
SMILES	Mtb growth
CCOc1ccc(C(=O)NC(=S)Nc2cc(Cl)c(O)c(Cl)c2)cc1[N+](=O)[O-]	i
Nc1nnc(SCc2cc3c(cc2Cl)OCO3)s1	i
CS(=O)(=O)N1CCn2c1nc1ccccc12	i
COc1ccc(S(=O)(=O)N(C)CC(=O)N2CCCCC2)cc1	0.3%
O=C(CNC(=O)C1CCCCC1)Nc1cc(Cl)cc(Cl)c1	i
CCOC(=O)c1ccc(NC(=O)/C(=C\c2ccco2)NC(=O)c2ccccc2Cl)cc1	i
CC(NC(=O)c1ccc(NS(C)(=O)=O)cc1)c1ccccc1 (centres undefined)	i
COc1ccc(Nc2nc(N3CCN(S(C)(=O)=O)CC3)nc3ccccc23)c(OC)c1	i
Cc1oc(CC(C)C)cc1C(=O)NCCCC(=O)O	i
CCOc1ccccc1N(CC(=O)Nc1ccc(OC)cc1OC)S(C)(=O)=O	i
Fc1ccccc1CSc1nnnn1-c1ccccc1F	i
Cc1ccc(OCC(=O)Nc2ccc(C(=O)Nc3ccccc3C(=O)O)cc2)cc1C	i
O=C(OCc1ccccc1Cl)C1(O)c2ccccc2-c2ccccc21	2.76µg/mL*
COc1ccc(CC(=O)Nc2ccc(-c3nnc(-c4ccco4)o3)cc2)cc1OC	i
CCc1cc2c(=O)n(-c3ccccc3)c(SCC(=O)O)nc2s1	i
COc1ccc(C(=O)Nc2ccc(-c3ccccc3)cc2)cc1	i
CCN(CC)S(=O)(=O)c1ccc(OC)c(NC(=O)c2ccccc2Br)c1	i
OC(COc1ccccc1F)CN1CCN(Cc2ccccc2)CC1 (centres undefined)	5.3%
COc1ccccc1NC(=O)N1CCN(c2ccccc2F)CC1	2.6%
Fc1ccccc1NC(=S)N1CCCC1	i
O=C(CNCc1ccccc1)NC1C2CC3CC(C2)CC1C3 (centres undefined)	i
CCOC(=O)c1ccc(NC(=S)Nc2ccc(C(=O)N3CCCCC3)cc2)cc1	49.9%
O=C1CC(N2CCN(c3ccccc3O)CC2)C(=O)N1c1ccc(Cl)cc1 (centres undefined)	i
Cc1c(C)n(C(=O)CSc2nnc(-c3ccccc3)o2)c2ccccc12	i
Cc1ccccc1C(=O)NCc1nnc(SCC(=O)Nc2cccc(C(=O)OC(C)C)c2)n1C	i
O=C(O)c1ccc(-c2c(C(F)(F)F)oc3cc(O)ccc3c2=O)cc1	i
COc1ccc(CNCCc2ccc(Cl)cc2)cc1OC	i
COc1c(S(=O)(=O)N2CCN(c3cc(C)ccc3C)CC2)ccc(Cl)c1Cl	i
CCCN(CCC)S(=O)(=O)c1ccc(NS(=O)(=O)c2ccc(Cl)cc2)cc1	i
CCCSc1nc2c(c(=O)[nH]1)C(c1ccccc1OC)C1=C(CCCC1=O)N2 (centres undefined)	i
CCOc1ccccc1C1C(C#N)=C(N)OC(C)=C1C(=O)OC (centres undefined)	2.0%
Cc1cc(C)cc(COc2cc3oc(=O)c(C)c(C)c3cc2Cl)c1	i
O=C(Cc1ccccc1)Nc1ccc2oc(-c3cc(F)c(F)cc3Cl)nc2c1	i
C=CCc1cccc2cc(C(=O)NC(C)(C)C)c(=O)oc12	i
c1ccc(-n2c(SCc3nc4ccccc4[nH]3)nnc2-c2cnccn2)cc1	0.9%
Cc1cc2c3c(C)n(C4CCCCC4)c(C)c3c(C)nn2c1	12.7%
Cc1cc(C)c(C)c(Cn2c(CO)nc3ccccc32)c1C	29.1%
O=C(CCCc1ccccc1)Nc1nc(-c2cccc(Br)c2)cs1	2.5%
COC(=O)c1cc(-c2c(C)nn(-c3ccccc3)c2C)n[nH]1	i
Cc1ccc(NC(=O)c2ccco2)c(NC(=O)c2cccs2)c1	i
COc1ccccc1-c1c(C)oc2cc(OC(=O)c3ccccc3Br)ccc2c1=O	i
CCc1cccc(OCC(=O)Nc2ccc(I)cc2)c1	41.5%
CCC(C)c1ccccc1NC(=O)c1ccc(Br)o1 (centres undefined)	1.8%
CCOC(=O)c1cnc2ccc(Br)cc2c1Nc1ccccc1O	i

Reprinted from the part before: 3 compounds, then new ones.
SMILES	Mtb growth
CCc1cccc(OCC(=O)Nc2ccc(I)cc2)c1	41.5%
CCC(C)c1ccccc1NC(=O)c1ccc(Br)o1 (centres undefined)	1.8%
CCOC(=O)c1cnc2ccc(Br)cc2c1Nc1ccccc1O	i
O=C(COc1cc(Cl)c(Cl)cc1Cl)N1CCN(c2ccccn2)CC1	i
O=C1CC(N2CCN(Cc3ccc4c(c3)OCO4)CC2)C(=O)N1c1ccccc1 (centres undefined)	i
COCc1nnc(NC(=O)C2CCCO2)s1 (centres undefined)	i
COc1ccc(C(=O)Nc2ccccc2C(=O)Nc2ccncc2)cc1	0.8%
CCc1ccccc1NC(=O)CSc1nnc(-c2ccncc2)n1C	i
CC(C)(C)c1coc2cc3oc(=O)ccc3cc12	3.7%
CS(=O)(=O)N(CC(=O)N1CCOCC1)Cc1ccccc1	i
O=C(CN(c1ccccc1)S(=O)(=O)c1ccccc1)Nc1ccccc1C(=O)NCc1ccccc1	i
COc1ccc(C(=O)NCCSCc2ccco2)cc1OC	2.4%
O=C(Nc1cnn(Cc2ccc(Cl)cc2)c1)c1cccs1	i
N#Cc1ccccc1S(=O)(=O)Nc1ccc(F)c(Cl)c1	i
O=C(CN1CCCCC1)Nc1cc(C(F)(F)F)cc(NC(=O)CN2CCCCC2)c1Cl	i
COc1ccccc1Oc1ccc(S(=O)(=O)Nc2ccccc2F)cc1	i
O=C(NC(=S)Nc1cccnc1)c1cc(Cl)ccc1Cl	i
CCc1ccc(OCC(=O)Oc2ccc(OC)cc2)cc1	i
Fc1ccc(CNC(=S)Nc2ccc(Cl)cc2)cc1	i
Cc1ccc(CSc2nc3c(c(=O)[nH]2)C(c2cccc([N+](=O)[O-])c2)C2=C(CCCC2=O)N3)cc1 (centres undefined)	i
CC(=O)Nc1ccc(S(=O)(=O)Nc2ccc3c(c2)OC(C)(C)O3)cc1	1.9%
O=Cc1cc(Cl)ccc1OC(=O)c1ccc(F)cc1	2.4%
CCOC(=O)Cc1csc(NC(=O)c2csc(C)c2)n1	0.5%
COC(=O)c1ccc(NC(=O)c2ccc(NC(=O)c3ccco3)cc2)cc1	i
Oc1ccc(Cl)cc1CNc1nccs1	i
Nc1ncnc(Nc2ccc(OCc3ccccc3)cc2)c1[N+](=O)[O-]	4.3%
Cc1ccc(Cl)cc1NC(=O)CN(c1cccc([N+](=O)[O-])c1)S(C)(=O)=O	i
CCOC(=O)C1CCN(C(=O)c2ccc(CN(c3ccc(C)c(C)c3)S(C)(=O)=O)cc2)CC1	i
O=C(Oc1ccc(C(=S)N2CCCCC2)cc1)c1cccc(Cl)c1	29.2%
COc1ccc(C(=O)Nc2ccc(C(=O)Nc3cc(OC)ccc3OC)cc2)cc1	i
Cc1ccc(NC(=O)CSc2nnc3c4c5c(sc4nc(C)n23)COC(C)(C)C5)cc1	i
Cc1cc(C)c2nc(SCCc3ccccc3)nc(C)c2c1	9.4%
Cc1ccc(NC(=O)Cc2nnc(SCc3ccc(F)cc3)n2C)cc1	i
COc1ccc(S(=O)(=O)NCc2ccccc2C)cc1C	i
COc1ccc(Cl)cc1S(=O)(=O)Nc1ccc(C)c(Cl)c1	1.9%
Cc1cc(Br)c(S(=O)(=O)N2CCN(c3c(C)cccc3C)CC2)cc1C	i
CCc1cccc(CC)c1NC(=O)CN(c1ccc(F)cc1)S(C)(=O)=O	i
COc1ccc(CCCc2nnc(SCC(=O)Nc3cc(F)ccc3C)o2)cc1C	4.1%
Cc1ccc2nc(-c3ccc(NC(=S)NCCC(C)C)cc3)sc2c1	i
CCCCc1cc(=O)oc2c(CN3CCCC(C)C3)c(O)c(Cl)cc12 (centres undefined)	i
Cc1cc(C)c2c(N)c(C(=O)N3CCOCC3)sc2n1	i
O=C(NCC(O)CNC(=O)C(F)(F)C(F)(F)F)C(F)(F)C(F)(F)F	1.3%

Screening results: PubChem BioAssay, Southern Research Institute
